Vaccinia stage – blocks a specific stage of Vaccinia orthopoxvirus infection. Vaccinia-infected cells, mCherry/Venus stage reporter fluorescence; stronger effect = lower value; some inactives read as strong as hits. activity change (mCherry), % (no concentration beside the values). actives 0.01% (n = 89,000). AID 1053133;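 active means mCherry past -33% and 40 or more points under the early reporter, replicates agreeing; inconclusive means past -33% without that gap or agreement; tested in A549 cells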;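 further: scaled between vehicle wells and reference inhibitor wells; 23 nL library stock went into each well; one replicate is shown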
Vaccinia stage Venus – recorded beside Vaccinia stage, whose call it bears; activity change (Venus), %; measured here: Venus reporter, other viral stage;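 negative = less Venus signal; first of two replicates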
The depositor's hits bear a star; ? = inconclusive; · = no result given; & = joins results of further samples.

SMILES	Vaccinia stage	Vaccinia stage Venus
C[C@H](NC(=O)C[C@@H]1C=C[C@@H](NC(=O)Cc2ccccn2)[C@@H](CO)O1)c1ccccc1	5	4
Cc1ccc(S(=O)(=O)Nc2ccc3c(c2)C(=O)N([C@H](C)CO)C[C@H](C)[C@H](CN(C)S(=O)(=O)c2ccc(Cl)cc2)O3)cc1	-16	-11
C[C@@H]1CN([C@@H](C)CO)C(=O)c2cc(NC(=O)Nc3ccc(F)cc3)ccc2O[C@H]1CN(C)S(=O)(=O)c1ccc(Cl)cc1	-12	-5
O=C(C[C@H]1CC[C@@H]2[C@H](COC[C@H](O)CN2Cc2ccc(C(F)(F)F)cc2)O1)NCCc1ccccc1	?	·
COc1ccc(S(=O)(=O)Nc2ccc3c(c2)C(=O)N([C@H](C)CO)C[C@@H](C)[C@H](CN(C)C)OCCCC[C@H](C)O3)cc1	6	6
COc1ccccc1C#Cc1ccc2c(c1)[C@@H]1[C@@H](CCN1C(=O)Cc1ccccc1)[C@@H](CO)N2	6	7
Cc1noc(C)c1S(=O)(=O)Nc1ccc2c(c1)C(=O)N([C@H](C)CO)C[C@@H](C)[C@@H](CN(C)S(=O)(=O)c1cn(C)cn1)OCCCC[C@H](C)O2	10	2
CO[C@H]1CN(C)C(=O)c2ccc(NS(C)(=O)=O)cc2OC[C@H](C)N(C(=O)C2CCC2)C[C@@H]1C	-8	-12
C[C@H]1CN([C@@H](C)CO)C(=O)CCCn2cc(nn2)CO[C@H]1CN(C)C(=O)Oc1ccccc1	5	12
CCCN(C)C[C@H]1OCCCC[C@H](C)Oc2ccc(NS(=O)(=O)c3ccc(C)cc3)cc2C(=O)N([C@@H](C)CO)C[C@H]1C	-15	-15
COc1ccc(C#Cc2ccc3c(c2)O[C@H](CN(C)C(=O)NC2CCCCC2)[C@@H](C)CN([C@H](C)CO)S3(=O)=O)cc1	-30	-13
Cc1noc(C)c1S(=O)(=O)Nc1ccc2c(c1)CC(=O)N([C@H](C)CO)C[C@H](C)[C@@H](CN(C)Cc1ccncc1)O2	22	12
O=C(Nc1cc(F)ccc1F)N[C@@H]1CC[C@@H](CCn2cc(C3CCCC3)nn2)O[C@@H]1CO	12	6
C[C@@H]1CN([C@H](C)CO)C(=O)c2cc(NS(=O)(=O)c3cn(C)cn3)ccc2O[C@H]1CN(C)CC1CC1	16	16
C[C@H](CO)N1C[C@H](C)[C@H](CN(C)C(=O)C2CCCCC2)OCCCC[C@H](C)Oc2ccc(NC(=O)C3CCCCC3)cc2C1=O	-29	-28
COc1ccc2c3c([nH]c2c1)[C@H](CO)N(Cc1cccc(F)c1)CC31CN(C(C)=O)C1	15	14
C[C@H]1CN([C@@H](C)CO)C(=O)c2cc(-c3cncnc3)cnc2O[C@@H]1CN(C)C(=O)Nc1ccc2c(c1)OCO2	18&24	12&16
C[C@@H]1CN([C@H](C)CO)C(=O)c2cc(NC(=O)C3CCCCC3)ccc2O[C@@H](C)CCCCO[C@H]1CN(C)C(=O)Nc1ccccc1	-5	-8
CN1[C@H](C(=O)NCc2ccc(F)cc2)[C@@H](CO)[C@@H]2Cn3c(ccc(-c4ccccc4F)c3=O)[C@@H]21	1	10
COc1ccc2c3c(n(C)c2c1)[C@@H](CO)N(C(=O)CC1CC1)CC31CN(Cc2nccs2)C1	10	-9
CO[C@@H]1CN(C)C(=O)c2ccc(NS(=O)(=O)c3ccccc3)cc2OC[C@H](C)N(C)C[C@@H]1C	2	-9
COc1ccc(NC(=O)N(C)C[C@H]2OCc3cn(nn3)CCCC(=O)N([C@@H](C)CO)C[C@H]2C)cc1	4	7
CC(=O)Nc1ccc2c(c1)C(=O)N(C)[C@@H]1CC[C@H](CC(=O)NCCCN3CCOCC3)O[C@@H]1CO2	8	9
C[C@@H]1CCCCO[C@H](CN(C)CC2CCCCC2)[C@H](C)CN([C@@H](C)CO)C(=O)c2cc(NC(=O)Nc3ccc(C(F)(F)F)cc3)ccc2O1	22	2
CC(C)NC(=O)Nc1ccc2c(c1)CC(=O)N([C@H](C)CO)C[C@@H](C)[C@@H](CN(C)Cc1ccc(C(=O)O)cc1)O2	28	18

10 neighbouring entries already listed:
SMILES	Vaccinia stage	Vaccinia stage Venus
C[C@H](NC(=O)C[C@@H]1C=C[C@@H](NC(=O)Cc2ccccn2)[C@@H](CO)O1)c1ccccc1	5	4
Cc1ccc(S(=O)(=O)Nc2ccc3c(c2)C(=O)N([C@H](C)CO)C[C@H](C)[C@H](CN(C)S(=O)(=O)c2ccc(Cl)cc2)O3)cc1	-16	-11
C[C@@H]1CN([C@@H](C)CO)C(=O)c2cc(NC(=O)Nc3ccc(F)cc3)ccc2O[C@H]1CN(C)S(=O)(=O)c1ccc(Cl)cc1	-12	-5
O=C(C[C@H]1CC[C@@H]2[C@H](COC[C@H](O)CN2Cc2ccc(C(F)(F)F)cc2)O1)NCCc1ccccc1	?	·
COc1ccc(S(=O)(=O)Nc2ccc3c(c2)C(=O)N([C@H](C)CO)C[C@@H](C)[C@H](CN(C)C)OCCCC[C@H](C)O3)cc1	6	6
COc1ccccc1C#Cc1ccc2c(c1)[C@@H]1[C@@H](CCN1C(=O)Cc1ccccc1)[C@@H](CO)N2	6	7
Cc1noc(C)c1S(=O)(=O)Nc1ccc2c(c1)C(=O)N([C@H](C)CO)C[C@@H](C)[C@@H](CN(C)S(=O)(=O)c1cn(C)cn1)OCCCC[C@H](C)O2	10	2
CO[C@H]1CN(C)C(=O)c2ccc(NS(C)(=O)=O)cc2OC[C@H](C)N(C(=O)C2CCC2)C[C@@H]1C	-8	-12
C[C@H]1CN([C@@H](C)CO)C(=O)CCCn2cc(nn2)CO[C@H]1CN(C)C(=O)Oc1ccccc1	5	12
CCCN(C)C[C@H]1OCCCC[C@H](C)Oc2ccc(NS(=O)(=O)c3ccc(C)cc3)cc2C(=O)N([C@@H](C)CO)C[C@H]1C	-15	-15

Further results.
SMILES	Vaccinia stage	Vaccinia stage Venus
Cc1ccc(S(=O)(=O)N[C@@H]2C=C[C@H](CC(=O)NCc3ccc(Cl)c(Cl)c3)O[C@@H]2CO)cc1	15	10
O=C(Cc1ccccc1)N1C[C@H]2[C@@H](c3ccccc31)[C@H](CO)N2S(=O)(=O)c1ccccc1	-6	-13
CN(C)CC(=O)Nc1ccc2c(c1)[C@@H]1C[C@@H](CC(=O)NCc3ccc(-c4ccccc4)cc3)O[C@@H](CO)[C@@H]1O2	?	·
CC(C)NC(=O)Nc1cccc2c1O[C@H](CN(C)S(=O)(=O)c1ccccc1)[C@@H](C)CN([C@@H](C)CO)C2=O	-1	-2
C[C@H]1CN([C@@H](C)CO)C(=O)Cc2cc(NS(=O)(=O)c3cccs3)ccc2O[C@H]1CN(C)Cc1ccc(-c2ccccc2)cc1	?	·
CO[C@H]1CN(C)C(=O)c2cc(NS(=O)(=O)c3cn(C)cn3)ccc2OC[C@H](C)N(CC2CC2)C[C@@H]1C	8	8
CCCN(C)C[C@@H]1Oc2cc(C#Cc3ccc(F)cc3)ccc2S(=O)(=O)N([C@@H](C)CO)C[C@H]1C	-13	-13
C[C@@H]1CN([C@H](C)CO)C(=O)c2cc(NC(=O)CCCN(C)C)ccc2O[C@@H]1CN(C)S(=O)(=O)c1ccc(F)cc1	16	11
C[C@@H]1CN([C@@H](C)CO)C(=O)Cc2cc(N(C)C)ccc2O[C@H]1CN(C)C(=O)Nc1ccc(F)cc1	7	1
C[C@@H]1CN([C@@H](C)CO)C(=O)Cc2cc(NC(=O)NC3CCCCC3)ccc2O[C@H]1CN(C)C(=O)NC1CCCCC1	2	-3
O=C(Nc1cccc(Cl)c1)N1C[C@H]2[C@@H](c3ccccc31)[C@@H](CO)N2Cc1ccccc1Cl	5	2
COc1ccc(S(=O)(=O)N(C)C[C@H]2Oc3cc(-c4cccc(F)c4)ccc3S(=O)(=O)N([C@H](C)CO)C[C@@H]2C)cc1	?	·
CS(=O)(=O)Nc1ccc2c(c1)[C@H]1C[C@H](CC(=O)NCc3ccncc3)O[C@H](CO)[C@H]1O2	13	9
Cc1ccc(S(=O)(=O)N(C)C[C@@H]2Oc3ccc(NC(=O)Nc4ccc5c(c4)OCO5)cc3C(=O)N([C@H](C)CO)C[C@H]2C)cc1	-5	8
C[C@@H]1CN([C@H](C)CO)C(=O)c2cc(-c3ccc(C#N)cc3)cnc2O[C@H]1CN(C)Cc1cncnc1	2	0
CC(C)C#Cc1ccc([C@@H]2[C@@H](CO)N3C(=O)CN(C(=O)NC4CCCC4)C[C@H]23)cc1	-33	-14
CCCC(=O)Nc1ccc2c(c1)OC[C@@H](C)N(CCC(F)(F)F)C[C@H](C)[C@H](OC)CN(C)C2=O	-6	-13
O=C(O)C[C@H]1CC[C@@H]2NC[C@H](O)COC[C@H]2O1	3	-2
C[C@@H]1CCCCO[C@H](CN(C)Cc2ccccc2)[C@H](C)CN([C@H](C)CO)C(=O)c2cc(NC(=O)Nc3ccccc3)ccc2O1	?	·
C[C@@H]1CN([C@@H](C)CO)C(=O)c2cc(NC(=O)c3ccccc3)ccc2O[C@@H](C)CCCCO[C@@H]1CN(C)S(=O)(=O)c1cn(C)cn1	21	9
O=C(Nc1ccccc1)N1CCCCN2[C@H](CO)[C@H](c3ccc(Br)cc3)[C@H]2C1	-24	-12
Cc1ccc(S(=O)(=O)Nc2ccc3c(c2)C(=O)N([C@@H](C)CO)C[C@@H](C)[C@H](CN(C)Cc2ccc(C(=O)Nc4ccccc4N)cc2)O3)cc1	-1	-8
CC(C)NC(=O)N(C)C[C@H]1Oc2ncc(C#CC3(O)CCCC3)cc2C(=O)N([C@@H](C)CO)C[C@H]1C	27	14
CN(C)C(=O)c1cccc(-c2ccc3c(c2)[C@@H]2[C@@H](CCN2C(=O)Nc2ccc(F)cc2)[C@H](CO)N3C)c1	1	4
C[C@@H]1CCCCO[C@H](CN(C)Cc2ccccc2)[C@@H](C)CN([C@H](C)CO)C(=O)c2cc(NS(=O)(=O)c3ccc(F)cc3)ccc2O1	13	5
Next structures
SMILES	Vaccinia stage	Vaccinia stage Venus
COc1ccc(NC(=O)N2CC(=O)N3[C@H](C2)[C@H](c2ccc(-c4ccccc4)cc2)[C@@H]3CO)cc1	-12	-5
CC(C)NC(=O)Nc1ccc2c(c1)C(=O)N([C@H](C)CO)C[C@H](C)[C@@H](CN(C)Cc1ccc(C(=O)O)cc1)OCCCC[C@H](C)O2	33	7
C[C@H](CO)N1C[C@H](C)[C@H](CN(C)Cc2ccc(C(=O)Nc3ccccc3N)cc2)Oc2c(cccc2N(C)C)C1=O	-13	-7
C[C@@H]1CN([C@H](C)CO)C(=O)c2cc(NC(=O)c3ccncc3)ccc2O[C@@H](C)CCCCO[C@@H]1CN(C)S(=O)(=O)c1ccccc1	9	5
C[C@@H]1CN([C@H](C)CO)C(=O)c2cc(NS(=O)(=O)c3ccc(F)cc3)ccc2O[C@@H]1CN(C)C(=O)Nc1ccc2c(c1)OCO2	6	-1
CO[C@@H]1CN(C)C(=O)c2ccc(NC(=O)NC(C)C)cc2OC[C@H](C)N(Cc2ccccc2)C[C@@H]1C	-7	-8
C[C@@H]1CN([C@H](C)CO)C(=O)c2cccc(NC(=O)c3ccncc3)c2O[C@@H]1CN(C)S(=O)(=O)c1ccc(F)cc1	-1	5
COCC(=O)N(C)C[C@H]1Oc2ncc(-c3ccccc3F)cc2C(=O)N([C@H](C)CO)C[C@@H]1C	0	-1
C[C@H](CO)N1C[C@H](C)[C@@H](CN(C)C(=O)c2ccncc2)Oc2ncc(C#CC3CCCCC3)cc2C1=O	-13	-19
C[C@H](CO)N1C[C@H](C)[C@@H](CN(C)Cc2ccc(C(=O)O)cc2)OCCCC[C@H](C)Oc2ccc(NC(=O)Nc3ccc(C(F)(F)F)cc3)cc2C1=O	13	8
COCC(=O)N1CC2(C1)CN(C(=O)Nc1ccccc1F)[C@@H](CO)c1[nH]c3cc(OC)ccc3c12	12	3
CN1C(=O)c2cc(NC(=O)c3cnccn3)ccc2OC[C@@H]2O[C@H](CC(=O)NCC3CC3)CC[C@@H]21	14	10
O=C(C[C@@H]1CC[C@@H]2[C@H](COC[C@H](O)CN2S(=O)(=O)c2ccc(F)cc2)O1)NCC1CC1	7	5
CNC[C@@H]1Oc2ccc(NC(=O)Cn3cnnn3)cc2CC(=O)N([C@H](C)CO)C[C@@H]1C	15	7
Cn1cnc(S(=O)(=O)N2CC[C@@H]3[C@@H](CO)Nc4ccc(C#Cc5ccccc5F)cc4[C@@H]32)c1	12	8
COc1ccc(-c2cnc3c(c2)C(=O)N([C@H](C)CO)C[C@H](C)[C@H](CN(C)C(=O)Nc2cccc4ccccc24)O3)cc1	-29	-14
COc1ccc(S(=O)(=O)Nc2cccc3c2O[C@H](CN(C)Cc2ccc(C(F)(F)F)cc2)[C@H](C)CN([C@@H](C)CO)C3=O)cc1	-30	-21
O=C(Cc1ccccn1)N[C@H]1C=C[C@@H](CC(=O)N2CCCCC2)O[C@@H]1CO	-10	3
CCCC#Cc1ccc([C@@H]2[C@H](CO)N3C(=O)CN(C(=O)c4ccncc4)C[C@@H]23)cc1	48	22
O=C(Nc1ccc(F)cc1)N1C[C@@H]2[C@H](c3ccccc31)[C@@H](CO)N2Cc1ccccc1Cl	-22	-14
O=C(NC1CCCCC1)N1CC(=O)N2[C@H](CO)[C@@H](c3ccc(-c4cccnc4)cc3)[C@H]2C1	-15	-18
CNC[C@@H]1Oc2ccc(NC(=O)c3ccncc3)cc2C(=O)N([C@@H](C)CO)C[C@H]1C	12	6
Cc1ccccc1S(=O)(=O)N(C)C[C@H]1OCc2cnnn2CCCC(=O)N([C@H](C)CO)C[C@@H]1C	13	14
CS(=O)(=O)Nc1ccc2c(c1)[C@@H]1C[C@@H](CC(=O)N3CCOCC3)O[C@H](CO)[C@@H]1O2	16	13

Only part of the results is shown; the hit share may differ from the screen's.
